HPGD inh: HPGD (human) dehydrogenase inhibition. P15428. Potency, µM, without a hit: at the highest dose activity change, negative = inhibition, actives largely listed as inhibitors. purified HPGD, NADH fluorescence kinetic, PGE2 substrate. 150,000 compounds, 4.3% hits; active = well fitted inhibition curve with a large enough effect (not every such curve was filed as active); inconclusive = small, poorly fitted or top-dose-only effect, or another doubt; inactive = no such curve, though single readings can be large or run the other way;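 further: top concentration of the series not given in the record; plate controls included wells without enzyme; inactives centre near -10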
Target sequence (P15428 whole entry, looked up): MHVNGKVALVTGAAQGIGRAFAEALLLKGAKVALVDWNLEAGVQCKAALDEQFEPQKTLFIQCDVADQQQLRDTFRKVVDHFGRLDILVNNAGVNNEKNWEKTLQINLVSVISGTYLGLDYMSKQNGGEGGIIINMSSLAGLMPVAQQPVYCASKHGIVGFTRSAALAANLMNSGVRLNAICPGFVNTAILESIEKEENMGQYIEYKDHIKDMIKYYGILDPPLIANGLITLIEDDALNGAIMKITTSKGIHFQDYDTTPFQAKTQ
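NADH formation kinetics: reaction with 30 uM PGE2 and 1 mM NAD+ (final), 20 nM enzyme, Tris-HCl pH 8 with Tween 20, after 15 min compound preincubation at room temperature. Fluorescence change, last versus first of five reads.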
Numbers without * were called inactive; ? = inconclusive; & = joins results of further samples. On the % scale 0 is the no-effect control and ±100 the full control effect; potency means the concentration at half of the fitted maximal effect. A portion of the library; the hit share may differ from the screen's.

HPGD inh,Compound
-17%,Cc1c(Cl)c(C(F)(F)F)nn1CC(=O)NCc1ccccc1
-11%,CN(C)C(=S)SCC(=O)Nc1cccc(C(F)(F)F)c1
-3%,CN(C)c1ccc(C(=N)c2ccc(N(C)C)cc2)cc1
-12%,Cc1cccnc1N(C(=O)Nc1cccc(Cl)c1)C1=NCC(C)(C)S1
-13%,O=c1[nH]c2ccc(Br)cc2c(-c2ccccc2)c1N1CCOCC1
?,O=C(O)c1c[nH]c2ccc(S(=O)(=O)N3CCN(c4ccc(F)cc4)CC3)cc2c1=O
-6%,c1cncc(-c2nnc(SCc3nc4ccccc4[nH]3)o2)c1
0%,Cc1ccc(OCCCNC2CCCC2)cc1
-11%&-10%,CC(C)NC[C@H](O)c1ccc(NS(C)(=O)=O)cc1
-10%,Cc1ccc(CNC(=O)CCNC(=O)Cn2ccc3ccccc3c2=O)cc1
-14%,CCCC1=C(C(=O)OCC)C(c2ccc(OC)c(C)c2OC)C(C#N)=C(N)O1 (stereo not drawn)
16µM*,O=C(/C=C/c1c[nH]c2ccccc12)c1ccccc1
-4%,CC(C)C(=O)Nc1nnc(CCN2CCCCC2)s1
-8%&-10%,Cc1c(NC(C)C)c(=O)n(-c2ccccc2)n1C
-15%,CCCC1(c2ccccc2)NC(=O)N(CC(=O)c2[nH]c(C)c(C(=O)OCC)c2C)C1=O (stereo not drawn)
-25%,CCCCOc1ccc(-c2nc(-c3cccnc3)no2)cc1
-5%,CCN(C(=O)COC(=O)c1cc2ccccc2cc1O)C1CCS(=O)(=O)C1 (stereo not drawn)
3%,COc1ccc(C(=O)NCc2cccnc2)cc1S(=O)(=O)N1CCOCC1
-8%,O=C(Cn1c(=S)[nH]c2ccccc21)c1ccccc1
-18%,COc1ccc(-c2ccccc2[C@H]2[C@@H]3C=CC[C@@H](C)[C@@H]3C(=O)N2Cc2ccccc2)cc1
-8%,O=C(Nc1ccc(F)cc1)C(c1ccccc1)N1CCN(S(=O)(=O)c2c(F)cccc2F)CC1 (stereo not drawn)
-16%,COc1ccc(OCC(=O)O/N=C(\N)Cc2cccs2)cc1
?,COc1ccc(NC(=O)Cc2ccc(Cl)cc2)cc1NC(=O)c1ccco1
-13%,COc1ccc(Nc2nnc(Cc3ccc(Cl)cc3)c(=O)[nH]2)c(OC)c1
-2%,O=C(NCc1ccccc1)NC1(C(=O)N2CCN(c3ccccc3)CC2)CCCCC1
0%,CCOC(=O)C(=CNc1ccccc1C)C(=O)OCC
-17%,CCCCNC(=S)NNC(=O)c1ccc(Br)o1
-6%,O=C(CSc1nnc2c(n1)[nH]c1ccccc12)OCc1ccccc1
-16%,Cc1nc(-c2ccccc2)sc1C(=O)CSc1ccc(F)cc1
0%,Cc1cccc(N=C/C(C(=O)C(F)(F)F)=C(\O)c2ccco2)c1

6 records picked at random from those above:
HPGD inh,Compound
-2%,O=C(NCc1ccccc1)NC1(C(=O)N2CCN(c3ccccc3)CC2)CCCCC1
0%,Cc1cccc(N=C/C(C(=O)C(F)(F)F)=C(\O)c2ccco2)c1
-5%,CCN(C(=O)COC(=O)c1cc2ccccc2cc1O)C1CCS(=O)(=O)C1 (stereo not drawn)
-18%,COc1ccc(-c2ccccc2[C@H]2[C@@H]3C=CC[C@@H](C)[C@@H]3C(=O)N2Cc2ccccc2)cc1
0%,CCOC(=O)C(=CNc1ccccc1C)C(=O)OCC
-13%,COc1ccc(Nc2nnc(Cc3ccc(Cl)cc3)c(=O)[nH]2)c(OC)c1

Continued:
HPGD inh,Compound
?,Fc1ccc(-c2cnc(-c3cccs3)o2)cc1
-8%,Cc1noc(C)c1-c1cncnc1NC1CC1
-6%,Cc1cc(C(=O)COC(=O)CCCN2C(=O)c3ccccc3C2=O)c(C)n1C
-13%,Cc1ccc(-n2c(SCC(N)=O)nc3c(c2=O)C2(CCCC2)Cc2ccccc2-3)cc1
1%,CCCNC(=O)NS(=O)(=O)c1cnccc1Sc1ccc(Cl)cc1
?,Cc1c(-n2cc(C(=O)O)c(=O)c3cc(F)c(N4CCCC4)c(F)c32)c(=O)n(-c2ccccc2)n1C
-2%,CCN(CC)S(=O)(=O)c1cccc(NC(=O)COC(=O)c2cc(C)oc2C)c1
-6%,O=C(Cn1c(NCCO)nc2ccccc21)c1ccco1
0%,Cc1ccc(C)c(NC(=S)NC2CC3CCCC(C2)N3CC(C)C)c1 (stereo not drawn)
?,CC(C)n1c(-c2ccc(N(C)C)cc2)nc2ccccc21
-17%,CC(C)CCNC(=O)CCCn1c(=O)[nH]c2ccc(Br)cc2c1=O
-10%,CCOc1cc2c(cc1C(C)(C)C)NC(=O)CS2
-15%,O=C(O/N=C\c1ccc(N2CCOCC2)c([N+](=O)[O-])c1)c1ccccc1Cl
-8%,COc1ccc(OCc2nnnn2-c2ccccc2)cc1
-15%,CCOC(=O)c1c(C)oc2c1c(CN1CCN(C(=O)OCC)CC1)c(O)c1ccccc12
-4%,Cc1ccc(S(=O)(=O)N2CCN(Cc3nc4sc(C)c(C)c4c(=O)[nH]3)CC2)cc1
-13%,COC(=O)C1=C(C)N(C2CCCC2)C(=O)C1(NC(C)=O)C(F)(F)F (stereo not drawn)
-20%,O=C1CCCC2=C1C(c1ccccc1O)C1=C(CCCC1=O)O2
-15%,O=C(c1ccccc1)c1c(O)nc(-c2ccccc2)n(-c2ccccc2)c1=O
-28%,COc1ccc(CCNc2oc(COc3ccc(F)cc3)nc2C#N)cc1
-15%,Cc1ccccc1CN1C(=O)C(O)(CC(=O)c2ccncc2)c2ccccc21 (stereo not drawn)
-2%,COc1ccc(C(=O)N2CCC3(CCCN(C(=O)NC(C)C)C3)CC2)cc1
-7%,CC(=O)Oc1ccccc1N1C(=O)c2ccc(C(=O)O)cc2C1=O
1.6µM*,Cc1ccc(-c2n[nH]c(=S)n2/N=C/c2cc3c(cc2[N+](=O)[O-])OCO3)cc1
?,COC(=O)C1=CN(C(C)C)C=C(C(=O)OC)C1c1cc2c(cc1Br)OCO2
-9%,c1ccc(N(c2ccccc2)c2nc(N3CCCC3)nc(-n3ccnc3)n2)cc1
-17%,Cc1ccc(/C=C/c2nc3ccccc3c(=O)n2CCc2ccccc2)cc1
-14%,CCN(CC)S(=O)(=O)c1ccc(NC(=O)CN(c2cccc(F)c2)S(C)(=O)=O)cc1
3%,COc1cccc(NC(=O)NCCCN2CCN(c3ccc(F)cc3)CC2)c1
6%,O=C(CSc1nnnn1-c1ccccc1)N1CCN(C(=O)c2ccco2)CC1

Looked up above.
For HPGD inh, O=C(Cn1c(=S)[nH]c2ccccc21)c1ccccc1 shows -8%
For HPGD inh, COc1ccc(Nc2nnc(Cc3ccc(Cl)cc3)c(=O)[nH]2)c(OC)c1 shows -13%
For HPGD inh, Cc1cccc(N=C/C(C(=O)C(F)(F)F)=C(\O)c2ccco2)c1 shows 0%

(more compounds)
HPGD inh,Compound
-20%,COc1ccc(/C(C)=N/OCC(=O)N2CC3(C)CC2CC(C)(C)C3)cc1 (stereo not drawn)
-17%,Cc1ccc(-c2[nH]c(=O)n3ccncc23)s1
1%,Oc1ccc(CN2CCCCC2)c2cccnc12
-1%,CCNC(=O)NC(C(=O)OC)C12CC3CC(CC(C3)C1)C2 (stereo not drawn)
-3%,C/C(Cl)=C\CNC(C)c1ccccc1 (stereo not drawn)
-7%,C[C@](O)(c1ccccc1)c1nccc2ccccc12
-4%,O=C(NN1C(=O)/C(=C/c2cccnc2)SC1=S)C(c1ccccc1)c1ccccc1
-7%,S=c1oc(-c2ccncc2)nn1CCc1ccncc1
?,Cc1c(C(=O)NC(C)C)oc2c1-c1[nH]ncc1CC2
-2%,CCOc1ccc(NC(=O)Nc2cc(C)ccc2F)cc1
-12%,COC(=O)COc1ccc(C(=O)OC)cc1
-14%,CC(c1ccco1)N(C(=O)C12CC3CC(CC(C)(C3)C1)C2)c1ccccn1 (stereo not drawn)
-12%,Cc1ccc(C(=O)OCC(=O)Nc2ccccc2Sc2ccccc2)cc1C
-12%,COCCCNC(=O)CCCn1c(=O)c2ccccc2n(CC(=O)Nc2c(C)cc(C)cc2C)c1=O
35µM*,Nc1nc(SCC(=O)NNc2c(Cl)cc(Cl)cc2Cl)n[nH]1
-18%,O=C(N/N=C/c1cc([N+](=O)[O-])ccc1O)c1cc(-c2ccccc2)nc2ccccc12
-12%,CC1(C)NC(=O)N(CC(=O)O)C1=O
-20%,O=C1CC(=O)N(CCc2ccc(F)cc2)C(=O)N1
-1%,CCOc1ccc(C(=O)Nc2ccc(-c3nc4ccccc4[nH]3)cc2)cc1[N+](=O)[O-]
1%,O=C(CN(Cc1ccco1)C(=O)CCC(=O)Nc1nccs1)NCc1ccccc1
-12%,COc1cccc(/C=N/NC(=O)CNC(=O)c2ccc3c(c2)OCCO3)c1O
11µM*,CN1C(=O)/C(=C/c2ccccc2OCc2ccccc2)NC1=S
-21%,CCCCCC(=O)Nc1nc(C)c(-c2csc(Nc3ccccc3OCC)n2)s1
?,CCOC(=O)c1[nH]c2ccc(OCC)cc2c1NC(=O)CN1CCC2(CC1)OCCO2
-8%,C=CCc1cccc2ccc(=O)oc12
-19%,Cc1cc(Cl)ccc1NC(=O)CSc1nnc(-c2ccncc2)n1Cc1ccco1
-19%,O=C(COC(=O)c1ccccn1)Nc1nccs1
-8%,O=c1cc(O)c2c(=O)[nH]c(=O)n(-c3ccccc3)c2[nH]1
-6%,COc1ccc(OCC(O)COc2ccc(C(=O)O)cc2)cc1 (stereo not drawn)
-11%,O=C(Nc1nc2n(n1)C(c1ccccc1)CC(c1ccc(Cl)cc1)N2)c1ccco1 (stereo not drawn)
-20%,COc1ccc(C(=O)Nc2ccc(OCC(F)(F)C(F)F)c(C(F)(F)F)c2)cc1OC
-18%,CCOC(=O)C1=NN(C(=O)Cc2ccccc2)C(O)(c2ccc(Cl)cc2)C1 (stereo not drawn)
?,CCn1nc([N+](=O)[O-])c(C(C#N)c2nc3cc(C(F)(F)F)ccc3s2)c(Cl)c1=O (stereo not drawn)
-2%,CCCCCN(C(=O)NC(=O)NCCCC)S(C)(=O)=O
-16%,C/C(=C\c1ccco1)C1C(C#N)=C(N)Oc2n[nH]c(-c3ccccc3)c21 (stereo not drawn)
-11%,COC(=O)c1c(NC(=O)CSc2nncs2)sc2c1CCCCC2
32µM*,O=C(NCCn1cccc1)c1cccc2ccccc12
-14%,COc1ccc(/C=C/C(=O)c2c(O)ccc3c(C)cc(=O)oc23)cc1
-14%,CCOc1ncccc1C(=O)OCc1ccc(C(=O)OC)cc1
28µM*,Cc1[nH]n(-c2ccccc2)c(=O)c1C(C[N+](=O)[O-])c1ccc(Cl)cc1 (stereo not drawn)
-22%,O=C(COc1ccc2c(c1)OCO2)Nc1ccc2c(c1)oc1ccccc12
-9%,Cc1ccccc1-c1noc(C2CCCCC2)n1
-14%,CCOc1ccc(/C(O)=C2\C(=O)C(=O)N(CCOCCO)C2c2ccccc2OC)cc1 (stereo not drawn)
1%,Cc1ccc(C23CC4CC(CC(NC(=O)NCCN(C)C)(C4)C2)C3)cc1
?,COc1ccc(-c2cc(C(=O)N/N=C/c3ccc(O)cc3)[nH]n2)cc1
-7%,COc1ccc(/C(C)=N/NC(=O)c2nc(C)cc(C)n2)cc1
?,COc1ccc(N=C2S/C(=C\c3ccc(N4CCOCC4)o3)C(=O)N2CCc2c[nH]c3ccccc23)cc1
-15%,O=C(COc1ncnc2cc([N+](=O)[O-])ccc12)N(CCc1ccccc1)Cc1ccccc1
-9%,CS(=O)(=O)N(CC(=O)N1CCCC1)c1cccc(Cl)c1
?,CCOC(=O)N1CCC(NC(=O)c2cc3cc4cc(OC)ccc4nc3o2)CC1
-9%,COc1ccccc1C(=O)Oc1ccc(N2C(=O)CCC2=O)cc1
-12%,CCOC(=O)c1sc(NC(=O)CSc2nc(C)cc(C)n2)c(C#N)c1C
-10%,CN(C)CCNC(=O)NC1CCCCC1
?,CCn1c(SCC(=O)N2CCN(c3ccc(Cl)cc3)CC2)nc2ccccc2c1=O
3%,COC(=O)[C@H](C)NC(=O)NCc1ccccc1F
-16%,Cc1cc(C)c(C(CC(=O)c2cccs2)C(C#N)C#N)c(C)c1 (stereo not drawn)
-6%,COc1cc(Cl)c(S(=O)(=O)NCc2ccccn2)cc1Cl
?,O=C(CSc1ccc2nnc(-c3ccccn3)n2n1)NCC1CCCO1 (stereo not drawn)
-8%,COC(=O)C1=C(C)N(CCCC(=O)O)C(=O)NC1c1cccs1 (stereo not drawn)
35µM*,CNC(=S)N1N=C(c2ccc(Br)cc2)CC1c1ccc(OC)cc1 (stereo not drawn)

Continued:
HPGD inh,Compound
-6%,Cc1ccc(C(=O)c2c[nH]c(C(=O)NCCCN3CCOCC3)c2)cc1
0%,Cc1ccc(/C=C/C(=O)Nc2ccccc2C(N)=O)cc1
-7%,NC(=O)C(c1ccc(Cl)cc1Cl)c1ncc(C(F)(F)F)cc1Cl (stereo not drawn)
-30%,NC(=O)CSc1nnc(-c2cc3ccccc3o2)n1Cc1ccccc1
-5%,CCOC(=O)C(C)Sc1nnc(Cc2cc(=O)[nH]c(=O)[nH]2)n1-c1cccc(OC)c1 (stereo not drawn)
-19%,CNc1ccc(C(O)(C(F)(F)F)C(F)(F)F)cc1C(O)(C(F)(F)F)C(F)(F)F
-11%,C#CCOCCOCCOCCNc1nc(N2CCN(C(=O)[C@H](CCCCN)n3cc(CCCC)nn3)CC2)nc(N2CCN(C(=O)[C@H](CCCCN)n3cc(CCCC)nn3)CC2)n1
-3%,C[C@@]1(C(NC(=O)Cc2ccccc2)c2ccc(-c3ccccc3)cc2)C[C@H]1C1CCCCC1 (stereo partly drawn)

Four of these compounds in another layout.
> Cc1ccc(S(=O)(=O)N2CCN(Cc3nc4sc(C)c(C)c4c(=O)[nH]3)CC2)cc1
  HPGD inh = -4%
> O=C(COC(=O)c1ccccn1)Nc1nccs1
  HPGD inh = -19%
> NC(=O)C(c1ccc(Cl)cc1Cl)c1ncc(C(F)(F)F)cc1Cl (stereo not drawn)
  HPGD inh = -7%
> CCOC(=O)C1=NN(C(=O)Cc2ccccc2)C(O)(c2ccc(Cl)cc2)C1 (stereo not drawn)
  HPGD inh = -18%

Screens from PubChem.
